VDR inhibitor: blocks the human vitamin D receptor; P11473; VDR-SRC2-3 peptide fluorescence polarization, 2 h; Potency, µM, without a hit: max response, negative = inhibition, usual class: inhibitors; actives 0.93% (n = 400,000); active = well fitted inhibition curve with a large enough effect; inconclusive = small, poorly fitted or top-dose-only effect, or another doubt; inactive = no such curve, though single readings can be large or run the other way; note: series mostly up to about 120 µM
Target sequence (P11473 whole entry, looked up): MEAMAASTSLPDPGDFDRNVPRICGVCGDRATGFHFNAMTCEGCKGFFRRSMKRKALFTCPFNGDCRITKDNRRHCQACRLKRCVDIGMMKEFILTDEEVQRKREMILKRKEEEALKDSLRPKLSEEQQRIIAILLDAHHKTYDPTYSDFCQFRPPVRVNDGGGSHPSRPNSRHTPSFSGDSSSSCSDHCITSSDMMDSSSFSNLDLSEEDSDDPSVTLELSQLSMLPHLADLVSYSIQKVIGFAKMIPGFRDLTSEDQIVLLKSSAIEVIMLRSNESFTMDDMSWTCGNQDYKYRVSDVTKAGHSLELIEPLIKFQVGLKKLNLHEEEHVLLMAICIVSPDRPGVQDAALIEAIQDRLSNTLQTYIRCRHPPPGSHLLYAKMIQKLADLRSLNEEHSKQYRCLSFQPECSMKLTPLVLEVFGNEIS
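The screen uses fluorescence polarization to detect compounds that interfere with recruitment of the SRC2-3 coactivator peptide to VDR; plates are read after 2 h at room temperature.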
* hit, by the source's call; u = inconclusive; & = joins results of further samples; [ ] = dose if it differs, or a comment. % is set by controls: 0 for no effect and ±100 for the full control effect; potency is the fitted concentration of half-maximal effect.

SMILES	VDR inhibitor
Cc1ccc(S(=O)(=O)N2CCOCC2)cc1C(=O)OCCOc1cccc(Cl)c1	-14.9%
O=C(NCc1ccc(N2CCCC2=O)cc1)C1CCC(=O)N(Cc2ccccc2F)C1 (stereo not drawn)	1.0%
COC(=O)c1c(NC(=O)CSc2ncnc3c2cnn3-c2ccccc2Cl)sc2c1CCCC2	36.4%[activator]
CCOC(=O)Cn1cc2c(c1-c1ccc(Cl)cc1)c(=O)n(C)c(=O)n2C	-2.0%
COC(=O)c1nn(-c2ccc(OC)cc2)c(=O)cc1O	-4.7%
O=c1cc(O)nc(SCc2ccccc2)n1-c1ccc(F)cc1	5.0%
O=C(Nc1cccc(S(=O)(=O)Nc2ccc(Cl)cc2)c1)c1cc2c(s1)CCCC2	-16.4%
CC1(C)CC(=O)C(N=Nc2cccc([N+](=O)[O-])c2)=C(O)C1	-4.1%
CCC(=O)c1ccc(OC(C)C(=O)NC2(C#N)CCCCC2)cc1 (stereo not drawn)	-0.2%
Cc1nnc(SCC(=O)NCCC2=CCCCC2)[nH]c1=O	5.8%
CSc1nc2nc(C(F)(F)F)cc(-c3ccccc3)n2n1	-11.0%
CCC(CC)C(=O)Nc1cccc(C(=O)Nc2ccc(S(N)(=O)=O)cc2)c1	25.6%

Next section; it opens with the 5 that closed the last part.
SMILES	VDR inhibitor
CC1(C)CC(=O)C(N=Nc2cccc([N+](=O)[O-])c2)=C(O)C1	-4.1%
CCC(=O)c1ccc(OC(C)C(=O)NC2(C#N)CCCCC2)cc1 (stereo not drawn)	-0.2%
Cc1nnc(SCC(=O)NCCC2=CCCCC2)[nH]c1=O	5.8%
CSc1nc2nc(C(F)(F)F)cc(-c3ccccc3)n2n1	-11.0%
CCC(CC)C(=O)Nc1cccc(C(=O)Nc2ccc(S(N)(=O)=O)cc2)c1	25.6%
COc1ccccc1-c1noc(CCCC(=O)NC2CCCCC2)n1	-6.5%
CNS(=O)(=O)c1cccc2cccnc12	2.0%
O=C(O)[C@H]1CCCC[C@H]1C(=O)NCCNC(=O)[C@@H]1CCCC[C@@H]1C(=O)O	2.4%
CCOC(=O)C(C(=O)OCC)N(C#N)c1nc(SC)nc(N(C)C)n1	2.9%
O=c1c2oc3ccccc3c2n(Cc2ccccc2Cl)c(=O)n1Cc1ccco1	15.4%
O=C1C=C(Nc2ccc(Cl)cc2)C(=O)N1c1ccc(Cl)cc1	14.8%
Cc1cc(C)c2c(c1)NC(c1cc3c(cc1Br)OCO3)C1CC=CC21 (stereo not drawn)	-14.5%
Cn1c(CCNC(=O)c2ccco2)nc2cc(NC(=O)COc3ccc(Cl)cc3)ccc21	-3.0%
CCCn1c(SCC(=O)Nc2cc(C(=O)O)ccc2C)nc2sc3c(c2c1=O)CCC3	98.6%[activator]
CSCCC(NC(=O)c1ccccc1Br)C(=O)N1CCN(C/C=C/c2ccccc2)CC1 (stereo not drawn)	-23.3%
COc1ccc(CN2CCN(CC3CC3)CC2CCO)c(C)c1C (stereo not drawn)	-15.1%
Cc1ccc(CNC(=O)c2ccc(-c3nc(CS(=O)c4ccccc4)c(C)o3)cc2)cc1 (stereo not drawn)	5.7%
COc1ccc(S(=O)(=O)N2CCOCC2)cc1NC(=O)CSc1cccc[n+]1[O-]	5.8%
O=C(COc1ccc(S(=O)(=O)N2CCOCC2)cc1)N1CCOCC1	u
O=C(OCCN1C(=O)CCC1=O)c1ccc(S(=O)(=O)N2CCCCC2)cc1	-6.9%
CCc1ccccc1NC(=O)CCCSc1nc2ccccc2s1	-4.7%
Cc1cccc(-c2nc(SCC(=O)NCc3ccco3)c3c(=O)n(C)c(=O)n(C)c3n2)c1	17.2%
CCCNCC1C(Oc2ccc(Cl)cc2)C(=O)N1c1ccccc1C (stereo not drawn)	-1.3%
CCN(CC)S(=O)(=O)c1ccc(C(=O)NNC(=O)C2COc3ccccc3O2)cc1 (stereo not drawn)	5.3%
O=C(NCCOc1ccccc1F)Nc1ccc(Br)cc1	-10.9%
Cc1ccc(CCNC(=O)C2CC(=O)N(C3CCCCC3)C2)cc1 (stereo not drawn)	-7.9%
CC[N+](CC)(CC#Cc1ccccc1)CC(=O)c1ccc(Cl)cc1	18.5%
CC1=C(C(=O)Nc2ccc(C)cc2C)C(C(C)C)n2nc(SCc3ccccc3Cl)nc2N1 (stereo not drawn)	-12.0%
Cc1ccc(OCC(=O)O/N=C(\N)c2ccccn2)cc1C	0.0%
Cc1cc(F)ccc1NC(=O)c1c(C)oc2c1C1=NCCN1C=N2	1.0%
O=C(Cn1cc(/C=N/NC(=O)c2cccc(C(F)(F)F)c2)c2ccccc21)Nc1ccc(F)cc1	7.7%
CCOC(=O)Sc1nc2ncncc2[nH]1	-25.1%
CC(=O)c1ccc(OCc2cc(C(=O)N(C)Cc3ccccn3)no2)cc1	-21.8%
CC(C)[C@H]1COCCS(=O)(=O)N1Cc1cccc(Cl)c1	-5.5%
COc1cccc(CN(C)C(=O)CSCC(=O)Nc2cccc(C)c2)c1OC	2.9%
Cc1c(C(=O)c2cccc(F)c2)c2ccccn2c1CCC#N	-1.5%
CSc1ccccc1OCc1cc(C(=O)N2CCC[C@H]2C(N)=O)no1	-19.7%
Cc1cccc(OCC(=O)Nc2ccccc2C(=O)OCc2cc(=O)n3nc(C4CC4)sc3n2)c1	11.3%
CCOc1ccc(-n2c(SCC(=O)N3CCc4ccccc43)nc3c([nH]c4ccccc43)c2=O)cc1	6.5%
O=C(NCc1ccccn1)c1nnc(Cc2ccc(Cl)cc2)o1	-14.6%
CC1=C(C(=O)Nc2cccc(C(F)(F)F)c2)C(c2ccccc2)n2ncnc2N1 (stereo not drawn)	-0.6%
Nc1nc(N2CCCCC2)nc2ccccc12	-3.0%
CC(C)CN1CC(C)C(=O)N(c2ccccc2)C1=O (stereo not drawn)	-20.0%
Cc1ccc(SCC(=O)N2CCOCC2)cc1	16.1%
O=c1c(N2CCN(c3ccccc3)CC2)csc2ccc(Cl)cc12	12.2%
CC(=O)c1ccc(NC(=S)Nc2ccc3[nH]c(=O)[nH]c3c2)cc1	3.1%
CN(Cc1ccccc1)C(=O)c1nc2ccccn2c1CN1CCC(N2CCOCC2)CC1	-8.5%
CN(c1ccccc1)S(=O)(=O)c1cccc(C(=O)NNC(=O)c2ccccc2)c1	-18.4%
O=C(/C=C/c1ccc([N+](=O)[O-])cc1)c1cccs1	u
O=C(c1csnn1)N1CCC[C@@]2(CCN(c3ccccn3)C2)C1	-20.1%
Cc1ccc(-c2nc(CS(=O)(=O)CC(=O)NCCN3CCCC3)c(C)o2)cc1	-3.0%
CCOC(=O)C1CCCN(C(=S)NC2CCCC2)C1 (stereo not drawn)	-4.1%
O=C(CSC1=NS(=O)(=O)c2cc(F)ccc2N1)Nc1ccccc1F	-11.9%
CCC(CC)C(=O)Nc1nnc(SCC(=O)NC2CCCCC2)s1	-5.3%
CC(C)(C)c1ccc(C(=O)O[C@H]2[C@H](Cc3ccccc3)NS(=O)(=O)[C@H]3C[C@@H]4C=C[C@]23O4)cc1	4.1%
Cc1cc(NC(=O)CSc2nncc(=O)n2N)no1	-0.8%
C/C(CC(=O)NC(C)C)=N\NC(=O)COc1cc(C)c(Br)cc1Br	-5.5%
COc1cc(C[C@H]2C(=O)OC[C@@H]2Cc2ccc(OC)c(OC)c2)ccc1O	-6.8%
Cc1cc(=O)[nH]c2ccc(S(=O)(=O)NCc3ccccc3)cc12	-5.5%
CC(=O)c1ccc(C(=O)NC2CCCN(Cc3ccccc3F)C2)s1 (stereo not drawn)	5.4%
COc1ccc(CCC(=O)N2CCN(C3CCCCC3)CC2)cc1	11.4%
CCC(C)NCCOc1cccc(Br)c1 (stereo not drawn)	-24.1%
CC(C)CC(=O)NC1(C(F)(F)F)C(=O)N(Cc2ccccc2)C2=C1C(=O)CC(C)(C)C2 (stereo not drawn)	-12.7%
O=C(O)c1ccc(N2Cc3ccccc3C2)cc1O	-0.7%
O=c1[nH]nc(-c2ccc(F)cc2)cc1Cc1ccccn1	-5.7%
(further entries)
SMILES	VDR inhibitor
CCOC(=O)c1ccc(N2CCN(c3cc(C)ccc3C)CC2)c(NC(=O)Nc2ccc(Cl)cc2)c1	10.8%
CC(C)C[C@H]1CNC(=S)N1CC1CCCN1C[C@H](CC(C)C)N1C[C@H](CC(C)C)N(CC2CCCCCC2)C1=S (stereo partly drawn)	-14.8%
COC(=O)CN(C)C(=O)c1ccc2nc(Cc3cccc(Cl)c3)oc2c1	2.4%
O=C(Cc1ccccc1)NCCCc1ccccc1	-14.8%
Cc1cc(Br)ccc1NC(=O)CN(C)C(=O)Cn1c(=O)cnc2ccccc21	6.5%
O=C(O)c1ccc(S(=O)(=O)c2ccccc2)cc1	5.7%
Cc1[nH]c2ccccc2c1C(=O)CN1CCCCC1C (stereo not drawn)	1.0%
Nc1c(Cl)cc(-c2csc(NC(CO)c3nc4ccccc4n3CCOCCO)n2)cc1Cl (stereo not drawn)	-24.5%
COc1ccccc1CC(=O)OC(C)C(=O)Nc1ccc(S(=O)(=O)N2CCCCC2)cc1 (stereo not drawn)	-0.3%
Cc1ccc(S(=O)(=O)n2nc(OC(=O)c3cccc(F)c3)cc2N)cc1	-22.4%
Cc1nc2ccc(NC(=O)CS(=O)(=O)c3ccc(F)cc3)cc2s1	-2.8%
Cc1cc(C)n2nc(SCc3nnc(-c4cccs4)o3)nc2n1	13.5%

Another view of part of the listing above:
Structure,VDR inhibitor
O=C(O)c1ccc(S(=O)(=O)c2ccccc2)cc1,5.7%
Cc1[nH]c2ccccc2c1C(=O)CN1CCCCC1C (stereo not drawn),1.0%
CC(C)C[C@H]1CNC(=S)N1CC1CCCN1C[C@H](CC(C)C)N1C[C@H](CC(C)C)N(CC2CCCCCC2)C1=S (stereo partly drawn),-14.8%
Cc1nc2ccc(NC(=O)CS(=O)(=O)c3ccc(F)cc3)cc2s1,-2.8%

More records follow.
SMILES	VDR inhibitor
S=c1[nH]c(-c2ccc(Br)cc2)cn1CCc1ccccc1	-19.4%
CC(O)(C(=O)Nc1ccc(S(=O)(=O)c2ccccc2)cc1)C(F)(F)F (stereo not drawn)	2.9%&-15.6%
COc1ccc(/C=C2/C(=N)N3N=C(CC(=O)N4CCCC4)SC3=NC2=O)cc1	-8.1%
COc1cccc(NC(=S)/C(=C(\[O-])c2cc(C)n(-c3ccccc3F)c2C)[n+]2ccc(N(C)C)cc2)c1	2.0%
O=C1NC(=O)C2(COC(c3ccncc3)OC2)S1 (stereo not drawn)	-0.5%
COc1ccc(C(=O)Nc2cccc(C(=O)N3CCN(C)CC3)c2)cc1	u
CCCCc1c(O)nc(SCC(=O)N2CCOCC2)[nH]c1=O	-3.2%
CCOC(=O)C1CCN(C(=O)c2sc3nc(-c4ccc(F)cc4)cn3c2C)CC1	-16.6%
Cc1ccccc1NC(=O)c1cn(-c2ccccc2)nc1-c1ccccc1	10.4%&4.0%
COc1ccc(OC)c(NC(=O)Nc2ccccc2C)c1	-0.5%
Cn1c(Cc2ccccc2)nnc1SCC(=O)c1ccc(Br)s1	-27.9%
COc1ccc(CNC(=O)c2cc(C3CC3)on2)cc1	3.6%
COCCNC(=O)Cn1nc(N2CCN(c3ccccc3OC)CC2)ccc1=O	7.2%
Cc1ccc(NC(=O)C2CCCN(c3nccc(C)n3)C2)c(C)c1 (stereo not drawn)	-1.7%
O=C(Nc1ccc(C(F)(F)F)cc1)C1CCCCN1S(=O)(=O)c1ccccc1 (stereo not drawn)	-22.7%
Cc1ccc(NC(=O)Cn2nc(-c3ccccc3)nc(Cc3ccc(Cl)cc3)c2=O)cc1	13.0%
Cc1ccc(Nc2ccc(S(=O)(=O)N3CCOCC3)cc2[N+](=O)[O-])c(C)c1	-1.2%
O=C1CC(N2CCOCC2)C(=O)N1c1cc(Cl)cc(Cl)c1 (stereo not drawn)	-4.1%
CN(C(=O)c1ccncc1)c1nnc(-c2ccncc2)s1	-5.3%
C=C1C(=O)OC2CC1C(OC(C)=O)CC(C)=CCCC(C)=CCC[C@@]2(C)O (stereo partly drawn)	35.5µM*
COC(=O)CN1C(=O)Nc2ccc(Br)cc2C1c1ccccc1 (stereo not drawn)	-19.8%
CCOc1ccc(S(=O)(=O)N2CCC(C(=O)NCc3ccccn3)CC2)cc1Cl	-0.2%
N#Cc1cn(-c2ccccc2)nc1-c1ccco1	3.0%
CCOC(=O)c1c(C)[nH]c(C(=O)CN(C)CC(=O)Nc2ccccc2C(F)(F)F)c1C	-4.8%
COc1ccccc1Nc1nnc(SCC(=O)c2cc(C)n(CC3CCCO3)c2C)s1 (stereo not drawn)	2.8%
O=C(OCC(=O)N1CCCC1=O)C1COc2ccccc2O1 (stereo not drawn)	-16.4%
CC(=O)OC(C(=O)NC1CCCCC1)c1ccncc1 (stereo not drawn)	-8.7%
COc1ccc(CNS(=O)(=O)c2ccc(NC(=O)N3CCCCC3)cc2)cc1	2.9%
COC(=O)c1cccc(C(=O)N2CCCC(Nc3ccc4c(c3)OCCO4)C2)c1 (stereo not drawn)	30.5%[activator]
O=C(CN(Cc1ccc(F)cc1)C(=O)CNS(=O)(=O)c1ccccc1)NCC1CCCO1 (stereo not drawn)	-3.5%
CCCn1c(=N)c(C(=O)NCc2cccnc2)cc2c(=O)n3cc(C)ccc3nc21	-5.9%
O=C1ON=C(c2ccccc2)/C1=C/c1ccc(OS(=O)(=O)c2ccccc2)cc1	u
CCOc1ccccc1C(=O)Nc1cc(=O)n(C)c(=O)n1C	2.7%
COc1ccc(S(=O)(=O)NCCSC(C)(C)C)cc1Cl	-1.7%
COc1cc(S(=O)(=O)N2CCN(Cc3ccccc3)CC2)ccc1Br	14.4%
Cc1cc(C)nc(NC(=O)CSc2nc3ccccc3o2)n1	-13.7%
Clc1ccc(Cn2cc3c(n2)-c2cc4ccccc4n2C3)cc1	-9.0%
COc1ccc(S(=O)(=O)n2nc(OC(=O)c3ccccc3Br)cc2N)cc1	2.1%

Assay outcomes from PubChem BioAssay.

A portion of the library; count on the stated rates, not on these rows.
